Bioassay records as filed in PubChem.
H5N1 antiviral – antiviral screen in MDCK cells, H5N1 avian flu; AID 740; actives 0.07% (n = 96,000); cytopathic effect, luminescence, 72 h; hits give high values; no value below 0 was filed and about half of the inactive calls have no number; reference of the scale not given here; inhibition, % at 50 µM; in the data active = inhibition above about 25%
Starred values were filed as active, the others as inactive; i = inactive.

No. | structure | H5N1 antiviral
1 | COc1ccc(CCNC(=O)c2c(C)cc(=O)oc2C)cc1OC | 2.0
2 | O=C(O)Cn1cc(C(=S)N2CCOCC2)c2ccccc21 | 0.3
3 | COc1ccc(-c2csc3nc(-c4ccccc4F)oc(=O)c23)cc1OC | 1.3
4 | Cc1nc(NCc2ccco2)[nH]c(=O)c1CCC(C)C | 24
5 | CCOC(=O)c1c(C)[nH]c(C(=O)OCC(=O)Nc2cc(C)ccc2OC)c1C | i
6 | Cc1ccc(OCCN2CCN(c3ncnc4sc(C)c(C)c34)CC2)cc1 | 1.1
7 | O=C(NCCCn1ccnc1)c1ccccc1NS(=O)(=O)c1ccc(F)c(F)c1 | i
8 | CCOc1ccccc1NS(=O)(=O)c1ccc(Br)s1 | i
9 | Cc1ccc(-c2ccnc3nc(Sc4ncc(C(F)(F)F)cc4Cl)nn23)cc1 | 0.3
10 | O=C(CN1CCOCC1)Nc1scc(-c2ccccc2)c1C(=O)N1CCOCC1 | 1.2
11 | COc1ccc(-c2cn3c(C)c(C(=O)N4CCN(c5ccc(F)cc5)CC4)sc3n2)cc1 | 0.1
12 | CC(=O)N(Cc1ccc(F)cc1)C1=C(NCCc2ccccc2)C(=O)c2ccccc2C1=O | i
13 | CC1(C)OC(=O)C(=CNc2ccccc2F)C(=O)O1 | i
14 | Cc1c(C(=O)OC2CCC(C)CC2)[nH]c2c1C(=O)CCC2 (stereo unspecified) | i
15 | CC(=O)Nc1c(C(=O)NCc2ccccc2)nnn1Cc1ccccc1 | i
16 | Cc1ccc2nsnc2c1-n1c(C)nc2ccccc2c1=O | 0.5
17 | Cc1cc(=O)oc2cc(OCC(=O)NCc3ccccn3)ccc12 | 0.2
18 | Cc1cc(O)cc(O)c1C(=O)Cc1cscn1 | 0.6
19 | COc1cc(C(=O)NCc2nnc(SCC(=O)Nc3cc(C)cc(C)c3)o2)cc(OC)c1OC | 1.6
20 | CCN(CC)C(=O)CSc1nc2ccc(NC(=O)CSc3nccn3C)cc2s1 | 4.0
21 | CC(=O)c1ccc(N2CCN(C(=O)C3CCC3)CC2)cc1 | i
22 | Cc1ccc(N2C(=O)C3C4C=CC(C4)C3C2=O)cc1C (stereo unspecified) | 2.4
23 | CCN(CC)C(=O)Oc1ccc2c(=O)c(-c3ccccc3)coc2c1 | i
24 | CCC1(CC)C(=O)N=C2c3ccccc3C(=O)N21 | 0.8

Rewritten as labelled records: entries from further up.
24) CCC1(CC)C(=O)N=C2c3ccccc3C(=O)N21
  H5N1 antiviral = 0.8
23) CCN(CC)C(=O)Oc1ccc2c(=O)c(-c3ccccc3)coc2c1
  H5N1 antiviral = i
17) Cc1cc(=O)oc2cc(OCC(=O)NCc3ccccn3)ccc12
  H5N1 antiviral = 0.2
18) Cc1cc(O)cc(O)c1C(=O)Cc1cscn1
  H5N1 antiviral = 0.6

Next part
No. | structure | H5N1 antiviral
25 | Cc1ncsc1CCOC(=O)c1cccnc1 | 1.1
26 | CCOC(=O)Cn1nc(/C=C/c2ccccc2)ccc1=O | i
27 | COc1cccc(NC(=O)N(CCCN2CCOCC2)C(C)c2cc3ccccc3o2)c1 (stereo unspecified) | i
28 | CCN1C(=O)C2C(c3cccc(F)c3)NC(CC)(C(=O)OC)C2C1=O (stereo unspecified) | i
29 | O=C(c1ccco1)N1CCN(C(=O)c2ccccc2Oc2ccccc2)CC1 | i
30 | C/C(=N\NC(=O)c1c(Cl)c(C)nn1C)c1cccc(NC(=O)COc2ccc(Cl)cc2)c1 | i
31 | COc1ccc2c(C)nc(Nc3nc(C)cc(C)n3)nc2c1 | 0.9
32 | CSc1cc(/C=N/O)c(SC)s1 | i
33 | Cn1c(C(=O)O)c(CC(=O)Nc2ccccc2F)c2ccccc21 | i
34 | CCc1nccn1S(=O)(=O)c1ccc(C)c(C)c1 | i
35 | CS(=O)(=O)N(CCc1ccccc1)CC(=O)NCc1cccnc1 | 1.2
36 | CCOC(=O)c1cc(OC(=O)c2cccs2)n(-c2ccccc2)n1 | 0.8
37 | O=C1NC(c2cccs2)C(C(=O)c2ccccc2)C(O)(C(F)(F)F)N1 (stereo unspecified) | 0.5
38 | COCCNC(=O)c1c[nH]c2cc(OC)c(OC)cc2c1=O | 0.1
39 | CCOc1ccc(NS(=O)(=O)c2ccc(NC(=S)NC(=O)C(C)C)cc2)cc1 | 1.8
40 | C=CCn1c(O)c(C(CC)=Nc2ccccc2NC(C)=O)c(=O)[nH]c1=O | i
41 | CC1CC1C(=O)OCC(=O)NCc1ccc(Cl)cc1 (stereo unspecified) | 1.0
42 | COc1ccc(C(=O)NCC(=O)OCC(=O)Nc2cc(OC)ccc2OC)cc1 | i
43 | COc1ccc(-n2nc(C(=O)NCC(=O)NCc3ccc(F)cc3)c3ccccc3c2=O)c(OC)c1 | 0.0
44 | O=C(Nc1ccc2c(c1)OCO2)c1cncc(Br)c1 | 0.1
45 | CCOC(=O)C(C)c1n[nH]c(=O)c2ccccc12 (stereo unspecified) | 0.6
46 | COc1ncnc2c1NC1=C(S2)C(=NCCC(=O)O)CC(C)(C)C1 | 1.4
47 | Cc1ccc(C)c(N2CCN(C(=O)C3CCCN(S(=O)(=O)c4c(C)[nH]c(=O)[nH]c4=O)C3)CC2)c1 (stereo unspecified) | i
48 | N#CC1=C(N)N=C(SCc2ccccc2)C(C(N)=O)C12CCCCC2 (stereo unspecified) | i
49 | CCC(=O)NC(=S)Nc1ccccc1F | i
50 | c1ccc(CNc2ccc3c(c2)ncn3C2CCCCC2)nc1 | 0.4
51 | CCCn1c(SCC(=O)Nc2nonc2C)nnc1-c1ccoc1C | i
52 | CCCCOc1ccc(C(=O)NCc2ccco2)cc1 | i
53 | COc1ccc(OC)c(C2C(C(=O)c3sc(C)nc3C)=C(O)C(=O)N2CCN2CCOCC2)c1 (stereo unspecified) | 0.8
54 | O=C(Cc1cccc2ccccc12)N/N=C1\CCCc2ccccc21 | i
55 | CC(C)(C)NC(=O)NC(=O)COC(=O)Cn1c(C(F)(F)F)nc2ccccc21 | i
56 | O=C(Nc1ccccc1)NC1(C(=O)NCCCN2CCOCC2)CCCCC1 | i
57 | O=C1CC(Nc2ccc(N3CCOCC3)cc2)C(=O)N1c1ccccc1 (stereo unspecified) | 0.2
58 | CCN(CC)S(=O)(=O)c1ccc(-n2cnnn2)c(C)c1 | 0.1
59 | CCOC(=O)c1c(C(F)(F)C(F)(F)C(F)(F)C(F)(F)F)n[nH]c1C | 0.5
60 | O=C(O)c1ccccc1C(=O)N(Cc1ccccc1)Cc1ccccc1 | i
61 | CC1CCN(S(=O)(=O)c2ccc(NC(=O)Cn3nnc(-c4ccccc4F)n3)cc2)CC1 | i
62 | CCC(=O)Nc1nc(OC)cc(OC)n1 | 1.5
63 | CCn1c(CNc2ccc(C)cc2)nnc1SCC(=O)NCc1ccccc1 | i
64 | COC(=O)C(O)(CC(=O)c1ccc(OC)cc1)C(F)(F)F (stereo unspecified) | 0.9
65 | O=C(CN1C(=O)NC2(CCCc3ccccc32)C1=O)N1CCc2ccccc2C1 (stereo unspecified) | i
66 | CCN(CC)CCNc1ccnc2cc(Cl)ccc12 | i
67 | COc1ccc(-n2c3c(cc(C(=O)N4CCC(C)CC4)c2=O)C(=O)CC(C)(C)C3)cc1 | i
68 | N#CC1=C(N)Oc2n[nH]c(-c3cccs3)c2C1C1C=CCCC1 (stereo unspecified) | 2.0
69 | O=C(Nc1ccc(S(=O)(=O)N2CCC(C(=O)NC3CCCCC3)CC2)cc1)c1ccco1 | i
70 | O=C(Nc1cccc(OC(=O)N2CCCCC2)c1)N1CCCCC1 | i
71 | CCC(Oc1cc(Cl)ccc1Cl)C(=O)NN1C(=O)C2C3CCC(C3=C(C)C)C2C1=O (stereo unspecified) | 0.1
72 | CCCOc1ccc(S(=O)(=O)NCc2ccc(OC)cc2)cc1 | 1.1

Exported as labelled records: four of the compounds above
(67) COc1ccc(-n2c3c(cc(C(=O)N4CCC(C)CC4)c2=O)C(=O)CC(C)(C)C3)cc1
  H5N1 antiviral = i

(64) COC(=O)C(O)(CC(=O)c1ccc(OC)cc1)C(F)(F)F (stereo unspecified)
  H5N1 antiviral = 0.9

(65) O=C(CN1C(=O)NC2(CCCc3ccccc32)C1=O)N1CCc2ccccc2C1 (stereo unspecified)
  H5N1 antiviral = i

(71) CCC(Oc1cc(Cl)ccc1Cl)C(=O)NN1C(=O)C2C3CCC(C3=C(C)C)C2C1=O (stereo unspecified)
  H5N1 antiviral = 0.1

(more compounds)
No. | structure | H5N1 antiviral
73 | CC(C)(C)OC(=O)N1CCC[C@H]1c1nnc(SCc2c(F)cccc2Cl)o1 | 2.7
74 | Cc1cc(NC(=O)c2ccccc2)sc1C | i
75 | COc1ccc(CCNC(=O)C2CCN(S(=O)(=O)c3cnc[nH]3)CC2)cc1OC | i
76 | COC(=O)c1ccc(OCC(O)CN2CCC(C)CC2)cc1 (stereo unspecified) | 0.3
77 | CCCOc1cc(N(CC)CC)ccc1/C=C(/C#N)c1nc2ccc(C)cc2[nH]1 | i
78 | CC1=C(C(=O)Nc2ccccc2)C(c2ccncc2)C(C#N)=C(SCC(=O)NC(C)C)N1 (stereo unspecified) | i
79 | O=C(O)C1C2C=CC(C3CC23)C1C(=O)NCCc1ccccc1 (stereo unspecified) | 0.7
80 | CCOC(=O)C1CCN(C(c2cc3c(C)ccc(C)c3[nH]c2=O)c2nnnn2C2CCCCC2)CC1 (stereo unspecified) | i
81 | Cc1ccc(N2CC(C(=O)Nc3cc(C)ccc3F)CC2=O)cc1 (stereo unspecified) | i
82 | O=C(O)CCCCCN1C(=O)C(=O)/C(=C(/O)c2ccccc2)C1c1ccccc1 (stereo unspecified) | i
83 | CCc1cc(C(=O)Nc2ccccc2)cs1 | i
84 | COc1ccc(-c2nnc3sc(COc4ccc(C)cc4)nn23)cc1 | i
85 | O=C(CCCN1C(=O)CCC1=O)Nc1ccccc1F | 0.0
86 | O=C(Nc1ccc2c(c1)OCO2)c1c(F)cccc1F | 0.5
87 | O=c1oc2ccccc2c(Nc2cccc(O)c2)c1[N+](=O)[O-] | i
88 | O=C(Nc1cccnc1)c1cc2nc(C3CC3)cc(C(F)(F)F)n2n1 | i
89 | Cn1c(C(=O)NCc2cccs2)cc2oc3ccccc3c21 | 1.2
90 | O=C(CCNS(=O)(=O)c1ccc(Br)s1)NC1CCCC1 | i
91 | COc1ccc(C)cc1NC(=O)CN(c1ccccc1)S(C)(=O)=O | i
92 | COc1ccc(-c2nc(CS(=O)CC(=O)N3CCc4ccccc4C3)c(C)o2)cc1 (stereo unspecified) | 1.4
93 | Cc1ccc(CN2CCN(C(=O)C3CCCO3)CC2)cc1 (stereo unspecified) | i
94 | CC(=O)C1=C(N2CCCCC2)CCC1=O | 0.6
95 | CC1=C(C)CC(C(=O)NCc2ccc3c(c2)OCO3)C(C(=O)O)C1 (stereo unspecified) | i
96 | COc1cccc(-n2nnc3c(=O)n(CC(=O)NCC4CCCO4)cnc32)c1 (stereo unspecified) | 0.8
97 | COc1ccccc1N/C(=N/c1nc(C)cc(C)n1)NC(C)=O | 0.3
98 | CN1CCN(S(=O)(=O)c2ccc(-c3ccccc3)cc2)CC1 | 1.1
99 | COC(=O)N1CC(C)N(C(=O)OC)CC1C (stereo unspecified) | i
100 | CCCSc1nnc(Sc2nnnn2-c2ccccc2)s1 | 0.5
101 | O=C(Nn1cnnc1)c1cc2cc(Br)ccc2oc1=O | i
102 | Cc1nc(SCC(=O)NCC2CCCO2)c2oc3ccccc3c2n1 (stereo unspecified) | i
103 | O=C(COc1ccccc1[N+](=O)[O-])N/N=C/C=C/c1ccco1 | 0.8
104 | NC(=S)Nc1ccc(Oc2ccc(NC(N)=S)cc2)cc1 | i
105 | O=C(NCCC1=CCCCC1)C1CCN(S(=O)(=O)c2cccs2)CC1 | 2.0
106 | Cc1cc(C)cc(NC(=O)CSc2nnc(CNC(=O)c3cccs3)o2)c1 | 0.9
107 | C=CCn1c(SCC(=O)N(CC)CC)nc(O)cc1=O | 0.5
108 | CC1CC(C)CN(S(=O)(=O)c2ccc(C(=O)Nc3sccc3C(N)=O)cc2)C1 (stereo unspecified) | i
109 | COc1ccc(CN(C2CCCC2)S(=O)(=O)c2ccc(-n3cnnn3)cc2)cc1 | i
110 | O=C(Nc1nccs1)C1CCN(S(=O)(=O)c2c(Cl)cccc2Cl)CC1 | 1.2
111 | O=C(CN1CCOCC1)N1CCN(c2nnc(-c3ccccc3)c3ccccc23)CC1 | i
112 | CCN(CCNC(=O)C1CCN(S(=O)(=O)c2cccc3nsnc23)CC1)c1ccccc1 | 1.3
113 | CCC(=S)/C=C1\Sc2ccccc2N1CCCS(=O)(=O)O | i
114 | O=C1NC(=S)N/C1=C\c1cccc([N+](=O)[O-])c1 | 5.3
115 | CCN(CC)CCn1c(NCc2nc3ccccc3n2Cc2ccccc2)nc2ccccc21 | i
116 | C/C(CC1(O)C(=O)N(C)c2ccccc21)=N\O (stereo unspecified) | 0.4
117 | O=C(NNC(=O)c1cc(OCC(F)(F)F)ccc1OCC(F)(F)F)c1cccc(C(F)(F)F)c1 | i
118 | O=C(O)c1ccc2c(c1)C(=O)N(Cc1ccc3c(c1)OCO3)C2=O | 0.9
119 | O=C(Nc1ccc(Br)cc1F)C1CCN(c2nnc(-n3cccc3)s2)CC1 | i
120 | N#CC1=C(SCC(=O)NC2CC2)NC(=O)C(C#N)C12CCCCC2 (stereo unspecified) | 0.9
121 | CCCCNC(=O)OCCNC(=O)NC | 0.6
122 | O=C(NNC(=O)c1ccccc1-n1cccc1)c1ccc(Cl)cc1 | 2.8
123 | O=C(COC(=O)CCCc1c[nH]c2ccccc12)Nc1ccc2c(c1)OCO2 | i
124 | CCOc1cc(NC(=O)c2ccco2)c(OCC)cc1NC(=O)Cc1cccc(OC)c1 | i
125 | Nc1c2c(nc3ccn(Cc4ccccc4)c(=O)c13)CCC2 | i
126 | CC1(C)CC(=O)C2=C(C1)N(c1ccc(F)cc1)C(=O)C2(O)C(F)(F)F (stereo unspecified) | 1.8
127 | CCC(=O)n1nc(-c2ccc(Cl)cc2)nc1NCc1ccccc1 | 0.7
128 | COc1ccc2c(c1)CCc1c(C(=O)NCCCn3ccnc3)noc1-2 | 0.7
129 | COc1cc(CN2CCN(S(=O)(=O)c3ccc(F)cc3)CC2)cc(OC)c1OC | 0.7
130 | C=C(C)CSc1nnc2n(C)c(=O)c3c4c(sc3n12)CCC4 | 2.7
131 | N#Cc1c2c(c(-c3ccco3)[nH]c1=O)CCCC2 | 1.7
132 | Nc1nc2nccc(-c3ccc(Cl)cc3)n2n1 | 0.4

This is a subset; count on the stated rates, not on these rows.
